rRNA inh HTS = reduced GFP signal of wild-type E. coli, primary screen, bacterial rRNA inhibitor project, GFP/RFP fluorescence, OD600, single point | 1.6% of 350,000 active | E. coli WT GFP vs humanized-ribosome RFP mutants, 24 h; stronger effect = lower value; DMSO median 0, no signal -100 | GFP signal change (wild-type ribosome), % (test concentration not listed);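 active means significant combined selectivity score with lowered wild-type GFP, culture density cut under 30%, mutant RFP and density less affected; inactive means any of these conditions unmet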; further: one replicate is shown; some compounds called inactive have numbers as strong as hits
T cruzi repl = inhibitors of intracellular T. cruzi growth, primary screen, luminescence, NIH3T3 host cells; 1.4% of 300,000 active; inhibition, % (no concentration beside the values); AID 1885, 2009; T. cruzi beta-gal in NIH3T3, 90 h;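 active means mean inhibition across valid replicates above about 55%, limit read from the data; inconclusive means mean below that limit but half or more replicates reach it; inactive means mean below it, under half of replicates reach it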;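 further: signal also drops with host cell toxicity which is not excluded here; 0% = plate median of DMSO wells and 100% = zero luminescence signal; higher percent means less beta-gal luminescence so fewer parasites; stock transfer was 50 nL into about 50 µL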
Beta2AR agonist = beta2AR agonists driving receptor internalization, primary screen, cell-based, FAP fluorogen, flow cytometry; Beta-2 adrenergic receptor (Homo sapiens), P07550; Am2.2-beta2AR cells; reference of the scale not given here; response, % (no concentration beside the values); 0.43% of 340,000 active;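 active means response above a set limit, near 3 SD of response in nonfluorescent compounds, cut at about 42% in these data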;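 further: stock transfer was 100 nL into about 11 µL; a reference agonist was the positive control; negative values mostly stem from fluorescent compounds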
ALR inh = inhibitors of human ALR sulfhydryl oxidase, primary screen, biochemical, H2O2 detection, HRP-luminol luminescence, single point. FAD-linked sulfhydryl oxidase ALR (Homo sapiens), P55789. purified ALR, DTT oxidation. inhibition, % (test concentration not listed). 3.8% of 290,000 active. AID 485317, 2010;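 active means mean and each replicate at 75% or more; inconclusive means only one of the two met; inactive means neither met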;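 further: stock transfer was 7.5 nL into about 7.5 µL; 0% = neutral wells and 100% = wells with inactivated enzyme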
Calb FLC = C. albicans growth inhibition with fluconazole, primary screen, CaCi-2 strain, Alamar Blue fluorescence; C. albicans CaCi-2 (fluconazole-resistant clinical isolate) + fluconazole, 48 h; growth inhibition, % (no concentration beside the values); 0.57% of 300,000 active;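 active means most replicates above 75%; inconclusive means exactly half above 75%; inactive means most below 75%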;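 further: all wells also contain fluconazole at 8 µg/ml as a sub-toxic cotreatment; 0% = median of DMSO wells and 100% = median of geldanamycin control wells; wells of about 8 µL received 7.5 nL stock; the first replicate is given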
Beta apoptosis = inhibitors of cytokine-induced beta cell apoptosis, primary screen, luminescence; INS-1E cytokine-induced death, ATP luminescence, 48 h; percent of positive-control rescue, neutral wells zero; protection from apoptosis, % (test concentration not listed); 0.8% of 300,000 active;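 active means all replicates at 75% or more, or half of them and the mean; inconclusive means half reach 75% but not the mean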;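 further: 0% = cytokine-treated negative control wells and 100% = positive control rescue; higher means more ATP so stronger rescue from cytokine killing; wells of about 40 µL received 100 nL stock; the first replicate is given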
A1 inh = caspase 3/7 activation in MEF A1-2A-BIM cells, primary screen, A1 inhibitor project, cell-based, luminescence, HTS | Caspase-Glo 3/7 luminescence, 3 h; percent of clofoctol response, vehicle zero | caspase activation, % (concentration not given with the values) | 0.066% of 330,000 active | AID 2462, 2010;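 active means over half of replicate activation scores above 10%, or exactly half above 10 with the replicate mean above 10; inconclusive means replicate mean below 10 yet half the replicates above 10; inactive means over half of replicates below 10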;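 further: wells of about 30 µL received 50 nL stock; many hits fall short of the cut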
LANA-H2A inh = blockers of LANA interaction with H2A/H2B – biochemical, FP readout, HTS, primary screen. Protein LANA1 (Human herpesvirus 8 type P (isolate GK18)), Q9QR71. cell-free LANA-H2A/H2B peptide, fluorescence polarization. inhibition, % (no concentration beside the values). 0.6% of 320,000 active. AID 2629, 2010; in the data active means inhibition mostly above about 10%, no sharp cut-off; inactive means mostly below about 6.7%;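 further: stock transfer was 7.5 nL into about 10 µL; 0% = median of vehicle wells and 100% = median of positive control wells; one replicate is shown; the record names a cut of 25% in any replicate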
Target sequence (Q9QR71 whole entry, looked up): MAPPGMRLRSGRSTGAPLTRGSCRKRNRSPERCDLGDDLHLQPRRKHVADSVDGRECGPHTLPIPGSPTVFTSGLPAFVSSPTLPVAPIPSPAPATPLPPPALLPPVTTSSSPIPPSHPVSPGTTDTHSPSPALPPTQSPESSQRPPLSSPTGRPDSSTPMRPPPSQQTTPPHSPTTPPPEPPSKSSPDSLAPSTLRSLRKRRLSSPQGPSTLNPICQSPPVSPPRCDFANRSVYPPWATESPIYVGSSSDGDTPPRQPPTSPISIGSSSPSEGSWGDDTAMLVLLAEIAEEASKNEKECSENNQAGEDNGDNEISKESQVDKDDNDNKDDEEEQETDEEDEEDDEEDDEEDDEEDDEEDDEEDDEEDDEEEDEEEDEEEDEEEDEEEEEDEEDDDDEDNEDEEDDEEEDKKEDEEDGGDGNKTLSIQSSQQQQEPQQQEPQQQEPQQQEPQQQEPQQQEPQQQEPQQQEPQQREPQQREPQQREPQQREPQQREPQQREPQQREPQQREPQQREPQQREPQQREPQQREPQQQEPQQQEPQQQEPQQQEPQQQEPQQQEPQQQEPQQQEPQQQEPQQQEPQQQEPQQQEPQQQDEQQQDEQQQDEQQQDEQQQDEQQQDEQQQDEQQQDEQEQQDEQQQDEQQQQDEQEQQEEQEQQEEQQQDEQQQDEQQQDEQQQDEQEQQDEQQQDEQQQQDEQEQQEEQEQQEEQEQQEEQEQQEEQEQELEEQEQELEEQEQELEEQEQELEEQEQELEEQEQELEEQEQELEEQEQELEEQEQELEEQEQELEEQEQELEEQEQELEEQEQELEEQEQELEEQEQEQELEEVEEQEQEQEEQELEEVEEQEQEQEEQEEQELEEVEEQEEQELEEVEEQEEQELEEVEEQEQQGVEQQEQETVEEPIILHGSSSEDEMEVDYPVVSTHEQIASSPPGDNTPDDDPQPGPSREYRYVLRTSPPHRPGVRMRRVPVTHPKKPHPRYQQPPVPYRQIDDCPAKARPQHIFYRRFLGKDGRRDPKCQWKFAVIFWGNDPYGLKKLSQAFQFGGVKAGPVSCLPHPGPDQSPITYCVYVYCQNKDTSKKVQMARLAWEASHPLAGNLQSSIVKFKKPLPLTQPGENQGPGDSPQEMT
rRNA inh HTS OD600 = also measured in rRNA inh HTS; calls as there; OD600 change, %; measured here: OD600 growth;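 optical density of the mix in the first replicate; 0 = DMSO median and -100 = no signal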
rRNA inh HTS RFP = recorded beside rRNA inh HTS, whose call it bears; RFP signal change, %; measured here: RFP humanized mutant strains;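 first replicate; 0 = DMSO median and -100 = no signal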
The depositor's hits bear a star; ? = inconclusive; / = not tested or not shown.

SMILES	rRNA inh HTS	rRNA inh HTS OD600	rRNA inh HTS RFP	T cruzi repl	Beta2AR agonist	ALR inh	Calb FLC	Beta apoptosis	A1 inh	LANA-H2A inh
CCn1c(Oc2ccccc2F)nc2c1c(=O)n(C)c(=O)n2C	4	0	-1.1	3	8	/	7	-14	-0.2	2.8
CC(=O)c1ccc(N2CCN(c3ccc(S(=O)(=O)NCCN(C)C)cc3[N+](=O)[O-])CC2)cc1	4	-5	-3.5	59*	-3	58	-6	8	-0.2	-7.0
CCc1ccc(CNC(=O)C2CCCN(c3nc4ccccc4o3)C2)cc1 (stereo unspecified)	/	/	/	7	-8	-2	2	-5	0.1	3.7
Cc1ccc(OCCOC(=O)c2cc(S(=O)(=O)N3CCCCC3)ccc2N2CCOCC2)cc1	0	7	-0.4	/	1	/	/	67	-0.6	7.1
O=Nc1c(O)n(Cc2ccc(Cl)cc2Cl)c2ccccc12	/	/	/	28	-6	11	27	25	0.3	-1.4
CC(=O)C1=C(O)C(=O)N(c2ccc(O)cc2)C1c1ccc([N+](=O)[O-])cc1 (stereo unspecified)	15	13	2.5	-6	-3	82*	7	-18	-0.4	2.2
CCn1c(SCC(=O)Nc2nc(C)c(C)s2)nnc1-c1ccco1	/	/	/	1	-9	3	-5	-1	-0.1	-0.6
CCOC(=O)c1ccccc1NS(=O)(=O)c1ccccc1F	/	/	/	-8	6	-1	-3	-1	0.1	0.6
COc1ccc(N(C(=O)c2ccncc2)S(=O)(=O)c2cccs2)cc1	-1	-1	1.4	-2	1	2	4	-4	1.2	3.9
COc1cc(C(=O)Oc2cc(N)n(S(=O)(=O)c3ccccc3)n2)cc(OC)c1OC	9	10	0.8	-1	3	/	4	10	0.1	5.2
COc1ccccc1OCC(=O)OCC(=O)NC1CCCCC1	6	14	2.7	/	2	-5	/	-6	-0.3	1.5
O=C(CCl)Nc1ncc(S(=O)(=O)c2ccc([N+](=O)[O-])cc2)s1	/	/	/	/	-5	-55	/	-9	-1.3	0.3
C=CCSc1nc(NC)c2sccc2n1	/	/	/	7	-14	/	-15	-3	-0.6	-7.9
CC(NCC(=O)Nc1cc(S(=O)(=O)N2CCOCC2)ccc1Cl)c1ccc(Cl)cc1Cl (stereo unspecified)	-3	-11	-3.9	38	3	-8	-5	10	0.6	-3.7
C(#CC1CCCC1)c1ccc2c(c1)COc1c3ccccc3nn1-2	-2	-12	-2.6	5	5	2	2	8	-4.1	5.2
CCc1ccc(NC(=S)N2CCCC(C(F)(F)F)C2)cc1 (stereo unspecified)	12	18	-0.1	0	6	1	-3	-10	0.2	5.0
O=C(C[C@H]1C(=O)N(CCc2ccccc2)C[C@@H]1Cc1ccccc1)Nc1ccccc1	-23	-42	21	17	-1	-19	-1	6	-0.1	2.3
CC(=O)c1ccc(NC(=O)C2CCN(S(=O)(=O)c3ccc4c(c3)N(C(C)=O)CCO4)CC2)cc1	-7	-1	0.3	4	14	-2	-5	1	1.5	1.6
CCOc1ccc2ccccc2c1/C=N/NC(=O)CNC(=O)C(c1ccccc1)c1ccccc1	3	3	3.3	3	5	/	?	-10	0.8	-0.1
O=C(NOCc1ccccc1)c1ccc(Cl)cc1	2	8	-2.0	/	-9	-6	/	6	-2.9	/
O=C(Nc1ccc(N2CCCCC2)cc1)c1ccc(F)cc1F	/	/	/	32	3	-15	-2	4	-12	1.6
OC(CN1C2=NCCN2c2ccccc21)c1ccccc1 (stereo unspecified)	11	7	1.2	-6	5	7	-1	0	0.8	14
CC(C)CN(C(=O)c1ccc(S(=O)(=O)N2CCCC2)cc1)C1CCS(=O)(=O)C1 (stereo unspecified)	3	3	-2.1	7	-1	4	8	0	-1.6	-0.1
Cc1cc(Oc2ccccc2)nc(SCC(=O)Nc2ccccc2)n1	/	/	/	-8	-2	7	1	-2	0.7	3.8
CN1c2ccccc2C(O)=C(C(=S)Nc2ccc(F)c(Cl)c2)S1(=O)=O	/	/	/	-11	6	96*	5	2	-2.1	-0.8
O=S(=O)(Nc1cc(Cl)ccn1)c1ccc(Cl)cc1	/	/	/	6	-4	-1	49	-6	0.7	0.8
CSC(=NC#N)N1CCN(c2ccc([N+](=O)[O-])cc2)CC1	6	5	3.9	-12	4	19	8	/	-1.0	3.6
CCCOP(=O)(OCCC)c1nc(-c2ccccc2)oc1NCc1ccccc1	0	12	0.7	24	-2	-10	?	4	1.0	-3.8
O=C(c1cc(COc2ccc(F)cc2Cl)on1)N1CCCC(c2ccccc2)C1 (stereo unspecified)	-21	-24	-1.2	32	-20	-3	?	7	-0.3	-1.4
Cc1ccc(C(C#N)c2ccc3c(C(F)(F)F)cc(C(F)(F)F)nc3n2)cc1 (stereo unspecified)	/	/	/	41	14	-1	4	39	-1.5	-0.9
O=C(c1cc2nc(-c3ccco3)cc(C(F)(F)F)n2n1)N1CCN(c2ccc(F)cc2)CC1	-8	-5	6.3	/	3	4	/	8	0.5	-4.3
COc1ccc(NS(=O)(=O)c2ccc(NC(=S)NC(=O)C(C)C)cc2)cc1	/	/	/	-8	0	-1	-8	0	0.6	1.2
CC1(C)Cc2c(sc3c2c(N)nc(=S)n3Cc2ccc(Br)cc2)CO1	8	11	-0.8	4	-5	-10	-10	-6	-1.0	4.0
Cc1nnc(OCC(=O)NCCC2=CCCCC2)c2ccccc12	/	/	/	11	-9	-9	8	-1	1.1	-1.2
Cc1[nH]c2ccccc2c1C(=O)CSc1nc2ccccc2[nH]1	-28*	-4.4*	3.6*	13	0	-2	9	-4	0.0	4.5
O=C(Nc1ccc(C(=O)NCCCN2CCN(c3ccccc3)CC2)cc1)C1=CSCCO1	-14	-11	0.1	-1	34	9	4	/	0.1	8.6
Cc1ccc(C)c(NC(=O)c2cc(-c3cc(C)ccc3O)n[nH]2)c1	-31	-47	-2.8	5	29	/	23	2	-1.9	-0.1
CCOc1cc(/C=C\[N+](=O)[O-])ccc1OCC(=O)N1CCOCC1	1	-2	-3.6	-3	67*	-1	-1	2	0.6	0.8
C/C(CC(=O)Nc1ccc(C)c(Cl)c1)=N\NC(=O)Cc1ccccc1	/	/	/	-4	4	/	-3	-8	1.1	-2.0
COc1ccc(C(=O)OCC(=O)NCCN2C(=O)CSC2=O)cc1[N+](=O)[O-]	0	11	-2.3	/	2	2	/	-6	1.1	2.6
Ic1ccc(N2CCN(Cc3c[nH]c4ncccc34)CC2)cc1	/	/	/	/	3	37	/	41	-0.2	-12
O=C(Nc1ccccc1C(=O)N1CCNCC1)c1ccco1	/	/	/	8	/	9	5	-1	-0.8	-1.3
c1ccc(C(Cc2nc(-c3ccncc3)no2)c2ccccc2)cc1	/	/	/	45	-3	-26	-2	34	-0.3	3.2
O=C(CN1CC(=O)Oc2ccccc21)NCc1ccco1	/	/	/	-23	-8	25	21	-17	-0.3	-1.4
Cc1ccc(C(OCCN(C)C)c2cccc(C(F)(F)F)c2)cc1 (stereo unspecified)	1	-10	3.5	9	5	-5	1	-2	2.5	-0.6
CC(C)c1ccc(NC2CCCN(C(=O)c3cccc4nccnc34)C2)cc1 (stereo unspecified)	-3	0	-1.5	-3	3	66	1	-2	-0.5	-3.0
CC1CC(C)(C)NC(=S)N1CCC(=O)N1CCN(c2ccccc2)CC1 (stereo unspecified)	1	4	-1.4	23	-7	?	-6	-1	2.4	2.9
COc1ccc(CC(=O)Nc2ccc(S(=O)(=O)Nc3nc(C)cc(C)n3)cc2)cc1	/	/	/	-1	5	-1	2	-2	-0.5	-1.8
COC(=O)CCCC(=O)N(C)CC1CCCN(CCc2ccccc2C)C1 (stereo unspecified)	0	2	0.3	47	-2	/	-3	-3	-0.2	4.0
CN(C)c1ccc(NC(=O)c2ccc([N+](=O)[O-])cc2Cl)cc1	9	8	0.7	8	0	6	-10	-4	-0.1	1.7
CN1CCN(C(=O)c2cnn(-c3ccccc3)c2NC(=O)c2ccccc2)CC1	/	/	/	8	7	-2	94*	-5	-0.1	-3.1
N=c1n(CC(=O)c2ccc([N+](=O)[O-])cc2)c2ccccc2n1Cc1ccccc1Cl	/	/	/	/	93*	/	/	2	0.1	-2.8
O=C(CCCCN1CCCCC1)c1ccc2c(c1)Cc1ccccc1-2	-8	-3	5.3	71*	-12	-11	1	44	-0.3	0.5
COCCOC(=O)c1c(C)oc2ccc(OC(=O)c3ccco3)cc12	-11	-6	-3.0	-13	-4	-2	11	0	-0.7	-0.4
CCSc1nnc(NC(=O)NC2CCCCC2)s1	-13	-14	-2.4	4	-1	7	1	0	-0.1	7.9
c1coc(-c2nnc(-c3ccco3)nn2)c1	7	19	-1.0	-1	-3	/	5	1	-2.5	4.1
COc1ccc(C2=NS(=O)(=O)N(C)C(C(=O)N(C)Cc3ccccc3)=C2)cc1OC	-20*	-27*	0.6*	9	3	/	7	/	/	/
COc1ccc2c(c1)Cc1sc(NC(=O)c3ccccc3)nc1-2	/	/	/	20	7	-41	3	3	-0.9	-1.7
CC(=O)c1cc2c(cc1N(C(=O)Cn1nnc3ccccc31)C(C(=O)NCCC(C)C)c1cccnc1)OCO2 (stereo unspecified)	14	15	3.3	-13	13	-3	16	-1	-0.2	6.2
CC1=CC(C)C2C(=O)N(CCCN(C)C)C(=O)C2C1 (stereo unspecified)	/	/	/	15	8	-7	4	-1	0.6	-1.8
(list continues)
SMILES	rRNA inh HTS	rRNA inh HTS OD600	rRNA inh HTS RFP	T cruzi repl	Beta2AR agonist	ALR inh	Calb FLC	Beta apoptosis	A1 inh	LANA-H2A inh
CCC(=O)OCc1c(C(F)(F)F)nn(C)c1Oc1cccc(C(F)(F)F)c1	/	/	/	-11	-2	8	-1	1	-1.0	3.4
C[C@@H]1CC=C[C@H]2[C@H]1C(=O)N(Cc1ccccc1)[C@H]2c1ccc2ccccc2c1/C=C/c1ccccc1	23	28	-4.7	-20	7	/	-8	4	-0.6	3.6
COc1cccc(OCCNC(=O)Nc2cc(F)c(F)cc2Cl)c1	21	17	0.2	-3	-4	-11	28	0	0.1	1.1
Cc1ccn2cc(CCNC(=O)C3CCCCC3)nc2c1	1	10	-9.2	-26	-3	/	-5	-7	-0.1	-0.4
OCC1(Cc2ccccc2C(F)(F)F)CCN(Cc2ccc3c(c2)CCO3)CC1	16	8	0.7	14	4	-6	5	-2	0.5	3.3

Rewritten as comma-separated lines: two of the compounds above
SMILES,rRNA inh HTS,rRNA inh HTS OD600,rRNA inh HTS RFP,T cruzi repl,Beta2AR agonist,ALR inh,Calb FLC,Beta apoptosis,A1 inh,LANA-H2A inh
Cc1ccn2cc(CCNC(=O)C3CCCCC3)nc2c1,1,10,-9.2,-26,-3,/,-5,-7,-0.1,-0.4
OCC1(Cc2ccccc2C(F)(F)F)CCN(Cc2ccc3c(c2)CCO3)CC1,16,8,0.7,14,4,-6,5,-2,0.5,3.3

From PubChem

An excerpt; rates above refer to the full screens.
